Bioassay records: PubChem, National Center for Advancing Translational Sciences (NCATS)
VACV mCherry inh: inhibitors of vaccinia virus infection (mCherry reporter signal) | Vaccinia virus mCherry reporter infection, fluorescence; about a quarter of the inactives have no number | Potency, µM (doses to about 36.5 µM), inactives show top-dose activity change, negative = inhibition, actives largely listed as inhibitors | 0.63% of 310,000 active; active = well fitted inhibition curve with a large enough effect; inconclusive = small, poorly fitted or top-dose-only effect; inactive = no such curve, though single readings can be large or run the other way; tested in A549 cells; note: nearly all actives have a fitted effect of over 35% in size; inactives centre near -10
VACV Venus inh: vaccinia inhibition (Venus reporter); Vaccinia virus Venus reporter expression, fluorescence; Potency, µM (highest dose often 36.5 µM), inactives show at the top dose activity change, negative = inhibition, usual class: inhibitors; 0.46% of 330,000 active; AID 720580; active means well fitted inhibition curve with a large enough effect; inconclusive means small, poorly fitted or top-dose-only effect; inactive means no such curve, though single readings can be large or run the other way; tested in A549 cells; note: nearly all actives have a fitted effect of over 30% in size; inactives centre near -10
* marks the source's active call; other numbers are inactive results; i = inactive; u = inconclusive; x = not tested or not shown; & = joins results of further samples; [ ] = remark or other dose. % is set by controls: 0 for no effect and ±100 for the full control effect; potency is the fitted concentration of half-maximal effect.

molecule	VACV mCherry inh	VACV Venus inh
CCOC(=O)c1c(NC(=O)CSc2cn(CCNC(=O)c3ccccc3F)c3ccccc23)sc2c1CCCC2	-12.3%	-12.7%
Cc1cc(C)c(C#N)c(Oc2ccc(O)cc2)n1	10.3%	-4.0%
CCc1nc(SCC(=O)c2cccc([N+](=O)[O-])c2)n[nH]1	i	-6.8%
CCOC(=O)CNC(=S)N(Cc1cccs1)C1CCCC1	-13.7%	5.7%
COCc1cccc(NC(=O)Cc2cccc3ccccc23)c1	-18.1%	-9.1%
CCCCn1c(N)c(N(Cc2ccccc2OC)C(=O)COc2ccc(C)cc2)c(=O)[nH]c1=O	-10.8%	-2.1%
CCn1c(CNC(=O)c2ccc(OC)cc2)nnc1SCC(=O)Nc1cccc(C)c1	-1.6%	0.2%
COc1ccc(C(=O)C2CC2c2ccc3c(c2)OCO3)cc1 (centres undefined)	-8.7%	-11.1%
CC1Cc2ccccc2N1S(=O)(=O)c1cccc(C(=O)N2CCN(c3ncccn3)CC2)c1 (centres undefined)	1.58µM*	17.9%
CCC(C(=O)OCC(=O)Nc1cc(OC)ccc1OC)c1ccccc1 (centres undefined)	-1.7%	-13.4%
Cc1c(C#N)c(O)n(CCO)c(=O)c1N=Nc1ccc(S(N)(=O)=O)cc1	-2.1%	1.3%
COc1ccc([C@H]2CN(c3ccc(OC)cc3)C(=O)[C@@H]2CC(=O)Nc2ccc(Br)cc2)cc1	-28.8%	-25.7%
O=c1[nH]c2c(c(=O)[nH]1)CCCCCC2	-11.8%	-2.9%
Cc1[nH]nc2c1C(=O)CC(C)(C)C2	x	-26.5%
Cc1ccc2ncc(NC(=O)c3ccc(F)cc3)c(=O)n2c1	-12.0%	-4.8%
CCCCN1C(=O)C(CC(=O)NC(c2ccccc2)c2ccccc2)CC(C(=O)N(C)C)=C1C (centres undefined)	-0.1%	-11.1%
CCOC(=O)CN1C(=O)N(CC)C(C)=C(C(=O)OC)[C@@H]1c1ccccc1	-14.3%	-0.1%
CN(Cc1ccccc1)C(=O)C1CCCN(Cc2ccc(Cl)cc2)C1 (centres undefined)	x	u
CCN(CC)CCOC(=O)c1ccc(NC(=O)CCNC(=O)Cn2ccc3ccccc3c2=O)cc1	-19.5%	-17.2%
O=C(Cn1nc([N+](=O)[O-])nc1Br)NC1CCCCC1	-4.8%	-6.9%
Cc1cccc(NC(=O)c2cn(-c3ccccc3)nc2-c2ccccc2)c1	-0.4%	-12.3%
COC(=O)c1ccc(COc2ncnc3c(Cl)cc(Cl)cc23)o1	-15.9%	-16.7%
COC(=O)CC(c1ccc(C(C)C)cc1)n1cccc1 (centres undefined)	i	-0.6%
O=C(NCCc1ccccn1)c1nc(Cn2cc(Br)cn2)no1	-0.1%	-1.7%
Cc1ccc(-c2nc3c(C)cc(Br)cn3c2Cc2ccccc2)cc1	-16.5%	-17.0%
Cc1ccc(NC(=O)CSc2nnc(N)s2)c(C)c1	i	-18.5%
O=C(CC1SC(=O)N(c2ccccc2)C1=O)Nc1ccc(Br)cc1 (centres undefined)	i	-11.8%
COc1ccc(C(=O)NC(=S)Nc2ccc3oc(=O)ccc3c2)cc1OC	-10.0%	-1.4%
COc1ccc(C2C=C(c3ccc(Br)cc3)Nc3nnnn32)c(OC)c1 (centres undefined)	-2.6%	-18.4%
CCOC(=O)[C@]12CCCC=C1N(CCC1=CCCCC1)C(=O)[C@H](CC(=O)NCCCOC)C2	i	-23.8%
CC1CCCN(S(=O)(=O)c2ccc(S(=O)(=O)NC(C)c3cccs3)cc2)C1 (centres undefined)	-14.8%	-12.2%
CCC1Nc2ncnc(N3CCCCC3)c2N(Cc2ccc(Br)cc2)C1=O (centres undefined)	-24.2%	u
Cc1ccc(CN(Cc2ccco2)C(=O)c2oc3ccc(C)cc3c2C)cc1	-13.3%	-4.9%
COC(=O)C1=C(C)Nc2c(c(=O)n(C)c(=O)n2C)C1c1ccc(Cl)cc1 (centres undefined)	-5.6%	-10.8%
Cc1nc2nc[nH]n2c(=O)c1C/C=C/c1ccccc1	i	-10.8%
CC(C)(C)OC(=O)N[C@@H](C(=O)OC(C)(C)C)c1ccccc1	i	-2.7%
Cc1ccc(N=Nc2c(N)[nH]n3c(=O)cc(-c4ccccc4)nc23)cc1	5.7%	0.0%
CC(C)CC(NC(=O)C(CC(C)C)NC(=O)C(Cc1ccc(OCc2ccccc2)cc1)NC(=O)OC(C)(C)C)C(N)=O (centres undefined)	i	0.4%
COc1ccc2c(c1)CCc1cnc(-n3ncc(C(=O)NC4CCOC4)c3C3CC3)nc1-2 (centres undefined)	-19.0%	-16.6%
CN(C(=O)COC(=O)c1cc(NS(=O)(=O)c2cc([N+](=O)[O-])ccc2Cl)ccc1O)C1CCCCC1	u	u
C=C1CCN([C@H](C(=O)NCc2ccc(Cl)c(Cl)c2)C(C)C)S(=O)(=O)c2ccccc21	i	-12.9%
CNc1ncnc2c1ncn2[C@H]1CN(Cc2ccc(-c3ccccc3)cc2)C[C@@H](CO)O1	i	-12.7%
CC(=O)N1C(=O)c2cccc3cccc(c23)C(=O)N1C(C)=O	x	-27.3%
O=C(Nc1ncccc1O)c1ccc(S(=O)(=O)N2CCCC2)cc1	-13.0%	-19.3%
COc1ccc(O)c(CNc2ccccc2F)c1	-12.5%	-4.8%
Cc1cc(C(=O)COC(=O)CNC(=O)c2ccccc2)c(C)n1CC1CCCO1 (centres undefined)	i	-0.7%
Oc1oc(-c2ccc(Br)cc2)nc1C=Nc1ccc(Br)cn1	-5.4%	5.8%
CCNC(=O)c1c(NC(=O)c2nc(SCC)ncc2Cl)sc2c1CCCC2	u	-25.1%
COc1ccc(-c2cc(C(F)(F)F)nc(S(C)(=O)=O)n2)cc1	u	u
CC(=O)N1c2ccc(S(=O)(=O)NCC3CCC(C(=O)NCc4ccccc4)CC3)cc2CC1C (centres undefined)	2.1%[7.34 µM]	0.0%[7.34 µM]
CC(=O)N(Cc1cccnc1)c1nc2c(C)c(C)ccc2s1	3.3%	2.9%
COc1cc2ccccc2cc1C(=O)Nc1nc(C)c(C(C)=O)s1	u	-3.9%
CC(C)Cc1nc2oc3c(=O)[nH]cnc3c2c2c1CCCC2	-0.4%	-5.5%
O=C(Nc1ccc(S(=O)(=O)Nc2ncccn2)cc1)c1ccccc1NS(=O)(=O)c1ccc(F)cc1	i	12.2%
COc1ccc(CCn2c(=O)c3cccnc3n(CC(=O)Nc3ccc(C)cc3C)c2=O)cc1OC	-9.7%	1.6%
N#Cc1ccsc1NC(=O)CSc1nnc(-c2ccccc2)o1	-16.9%	-8.0%
COc1ccccc1N1CCN(C(=O)c2ccc(Cn3c(=S)[nH]c4cc5c(cc4c3=O)OCO5)cc2)CC1	i	-12.0%
COC(=O)c1cc(CSc2nc3ccc(C)cc3[nH]2)oc1C	x	u
C[C@]12CC[C@H](O)CC1=CCC1C2CC[C@@]2(C)C1CC[C@@H]2NC(=O)[C@@H](N)CO (some centres undefined)	-1.9%	10.1%
CCC(=O)N1CCc2cc(Br)cc(S(=O)(=O)N3CCCC(C(=O)NCc4ccc(C)cc4)C3)c21 (centres undefined)	i	-4.5%

Next part
molecule	VACV mCherry inh	VACV Venus inh
N=C1CCC(=N)c2c1c(O)c1ccccc1c2O	4.1%	78.3%[activator]
CCOC(=O)c1cc(NC(=O)c2ccccc2)c(=O)n2c1oc1ccccc12	10µM*	7.94µM*
O=C(CSc1nc2ccccc2c(=O)n1Cc1ccco1)c1ccc(F)cc1	u	-26.3%
Cc1nc2ccc(Nc3nc4cc(S(=O)(=O)N5CCOCC5)ccc4o3)cc2s1	u	-24.5%
c1ccc(-c2cn3cccnc3n2)cc1	-14.9%	-8.1%
C=CCn1c(CSc2nc3ccccc3s2)n[nH]c1=S	x	-9.1%
COc1ccc2c(c1)-c1c(ssc1=S)C(C)(C)N2	-7.9%	-27.6%
NNC(=O)c1csc(Cc2c(Cl)sc3ccc(Cl)cc23)n1	-22.7%	-7.9%
Cc1ccc(S(=O)(=O)N2CCN(C(=O)CNC(=O)c3sc4ccccc4c3Cl)CC2)cc1	-25.9%	-20.0%
O=C(Nc1nc2n(n1)C(c1ccc(F)cc1)C=C(c1ccccc1)N2)c1ccco1 (centres undefined)	-8.8%	-10.9%
COc1ccc(/C=C(/NC(=O)/C=C/c2ccccc2)C(=O)O)cc1	-4.1%	-4.3%
Cc1cc(Cl)ccc1OC(C)C(=O)O (centres undefined)	i	-12.8%
Cc1ccc(S(=O)(=O)N(c2nc(NC(C)C)nc(NC(C)C)n2)n2cnnc2)cc1	-16.9%	-21.5%
CC1(c2ccccc2)NC(=O)N(CC(=O)Nc2ccc(N3CCOCC3)cc2N2CCOCC2)C1=O (centres undefined)	i	-3.0%
COC(=O)Nc1ccccc1C(=O)N1CCC(O)(c2ccc(Cl)cc2)CC1	-1.8%	-8.8%
Cc1nc2ccc(NC(=O)N3CCCCC3)cc2nc1C	x	7.2%
CC1(C(=O)NCc2cccc(Cl)c2)Cc2c(-c3ccc(C(N)=O)cc3)ccnc2O1 (centres undefined)	6.0%	-9.3%
CCC(C(=O)Nc1ccccc1OC)n1c(C(=O)OC)cc2sc(Cl)cc21 (centres undefined)	-7.4%	-6.9%
Cc1nc2c(C(=O)NCc3ccccc3Cl)c[nH]n2c(=O)c1Cc1cccc(Cl)c1	0.1%	-1.7%
O=C(Cc1ccc2c(c1)CCCC2)Nc1ccccc1Cl	-9.9%	-2.8%
COc1ccc(Nc2oc(/C=C/c3ccc(OC)c(OC)c3)nc2C#N)cc1	-8.3%	-8.8%
CN1C(=O)[C@@](O)(c2cn(C)c3ccccc23)c2cc(Br)ccc21	-23.4%	-11.6%
COc1ccc(OC(C)C(=O)N2CCN(c3ccccn3)CC2)cc1 (centres undefined)	-0.7%	0.1%
O=C(c1ccc2ncsc2c1)N1CCN(c2nc3ccccc3s2)CC1	u	-20.7%
O=C(CSc1nc2ccccc2c(=O)n1-c1ccc(OC(F)F)cc1)NC1CC1	-12.7%	-1.8%
O=C(/C=C/c1cccc([N+](=O)[O-])c1)c1ccc([N+](=O)[O-])o1	u	12.6µM*
COc1cc(/C=N/N(C)c2ccccc2)cc(Cl)c1O	-29.4%	-19.6%
CCCCN1CCC(CN2C(=S)NC[C@@H]2CC(C)C)CC1	i	-11.6%
CC(C)Oc1ccc(C(CC(=O)O)NC(=O)Cc2ccc(Cl)cc2)cc1 (centres undefined)	-11.5%	-1.8%
CCOc1ccc(Nc2nc(N)nc(CCl)n2)cc1	u	u

Three compounds from above, sorted by length of the SMILES, low to high.
molecule	VACV mCherry inh	VACV Venus inh
CCOc1ccc(Nc2nc(N)nc(CCl)n2)cc1	u	u
CCC(C(=O)Nc1ccccc1OC)n1c(C(=O)OC)cc2sc(Cl)cc21 (centres undefined)	-7.4%	-6.9%
Cc1nc2c(C(=O)NCc3ccccc3Cl)c[nH]n2c(=O)c1Cc1cccc(Cl)c1	0.1%	-1.7%

Following part:
molecule	VACV mCherry inh	VACV Venus inh
Cc1cccc(Cn2c(=O)n(Cc3ccco3)c(=O)c3ccccc32)c1	x	-15.6%
CC1CCCCC1NC(=O)C1CCN(C(=O)c2sccc2-n2cccc2)CC1 (centres undefined)	-2.6%	-9.5%
O=C(Cn1ccc(C(F)(F)F)n1)N/N=C/c1ccc2c(c1)OCO2	13.7%	-8.6%
CCOC(=O)c1cccc2c1N[C@@H](c1ccc(F)cc1)[C@H]1CC=C[C@@H]21	-2.3%	-6.1%
COc1ccc(C(=O)N2Cc3cnnn3-c3ccccc3C2C#N)cc1 (centres undefined)	-17.5%	-1.5%
C=CCn1cnc2scc(-c3ccccc3)c2c1=O	-18.4%[1.46 µM]	-7.7%
O=C(Nc1nccs1)c1ccc(Br)o1	-12.6%	-3.7%
CCCn1c(SCC(=O)NCCc2ccccc2)nnc1-c1cccnc1	-1.0%	2.6%
CCCCC1=CC2=CC(=O)C(C)(OC(=O)C3CCCC3)C(=O)C2=CO1 (centres undefined)	-0.3%	17.8%
CCN(C(=O)CSc1nc2cc(Cl)ccc2c(=O)n1CC(C)C)C1CCS(=O)(=O)C1 (centres undefined)	-13.6%	-8.0%
CN1C(=O)N(C)C(=O)C2(Sc3ccccc3C2=O)C1=O	-7.1%	-7.0%
CS(=O)(=O)N1CCN(c2ccc(NC(=O)CSc3ccc(Cl)cc3)cc2)CC1	-14.5%	-14.4%
Cc1ccc(-c2nc3c4c(-c5ccccc5)c(-c5ccccc5)oc4ncn3n2)cc1	-12.8%	-10.1%
COCCNc1sc(S(=O)(=O)c2ccc(C)cc2)nc1S(=O)(=O)c1ccc(C)cc1	-4.1%	-2.3%
NC(=O)c1cc(C(N)=O)nc(Cl)n1	-2.5%	-5.3%
C/C=C/C(=O)N1CC2(CC(c3cccc(NC(=O)CC)c3)=NO2)C[C@H]1C(N)=O (some centres undefined)	-10.3%	-19.2%
CCCN(CCC)CCCNC(=O)c1cc2c(-c3ccc(OC)c(OC)c3)nn(C)c2s1	-25.3%&-22.6%	-16.2%&-23.5%
CC(=O)NC(C(=O)O)C(C)(C)SN=O (centres undefined)	0.7%	-3.4%

No enrichment for hits. Share with any hit: about 0.82%.
